Sa ugtP lethal: growth inhibition of ugtP-null S. aureus, primary screen, RN4220 ugtP deletion, OD600. 16 h; some inactives read as strong as hits. growth inhibition, % (test concentration not listed). hit rate 0.54% among 330,000. AID 1259309, 2017;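 active = z-score under -3 and OD600 up to 0.15 on both plates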;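 also: plate controls were untreated wells for no effect and antibiotic for full effect; wells of about 80 µL received 100 nL stock; the first replicate is given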
Bead autofluor: counter-screen for toxin protease inhibitors: compound fluorescence; compound autofluorescence counterscreen, microsphere flow cytometry; hits give high values; hit rate 3.1% among 360,000; fluorescence intensity (no concentration beside the values);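 active = at least 3 SD above the mean of all compounds, about 16000 in these data; inconclusive = too few beads counted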;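 also: 100 nL of 1 mM stock went into each well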
Sa RN4220 lethal: growth inhibition of S. aureus RN4220, primary screen, OD600 | hit rate 0.33% among 330,000 | inhibition, % (no concentration beside the values) | 16 h;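 active = z-score of -3 or lower and OD600 up to 0.18 on both plates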;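 also: plate controls were untreated cells for no effect and reference antibiotic for full effect; stock transfer was 100 nL into about 80 µL; one replicate is shown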
BJeLR viability: MLPCN primary cell-based screen for lethality selective to Ras in HRASV12 cells | inhibition, % (concentration not given with the values) | hit rate 0.17% among 300,000 | BJeLR (HRASV12) viability, CellTiter-Glo ATP luminescence, 48 h; reference of the scale not given here;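 active = replicate mean above 50%; inconclusive = above 50% but judged a plate artefact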;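 also: 50 nL library stock added to about 25 µL; numbers are from one replicate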
Mtb hypoxia inh: PubChem AID 1159583. M. tuberculosis hypoxia-regulated fluorescent reporter, fluorescence. hit rate 0.1% among 300,000. fluorescence inhibition, % (no concentration beside the values);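 active = 35 to 45% if threefold the growth effect, above 45% if 1.5-fold the growth effect; inactive = the rest, general growth blockers included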;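 also: wells of about 50 µL received 100 nL stock; 0% = vehicle wells and 100% = reference inhibitor wells; whole bacteria with a GFP reporter of the hypoxia response; strong numbers were not always called active; many hits fall short of the cut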
PrP 5UTR inh: inhibition of PrP 5' UTR reporter expression; AID 488862, 2010; cell-based PrP 5' UTR mRNA reporter, plate reader; inhibition, % (test concentration not listed); hit rate 0.35% among 340,000;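 active = every replicate at 50% or more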;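 also: 0 = median of the neutral control wells; tested in H4 reporter cells; numbers are from one replicate; inactives centre near -14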
Mtb hypoxia inh growth: recorded beside Mtb hypoxia inh, whose call it bears; growth inhibition, %; measured here: M. tuberculosis growth (absorbance);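 0% = vehicle and 100% = reference antibiotic; read after six days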
* hit, by the source's call; ? = inconclusive; . = not tested or not shown; & = joins results of further samples.

SMILES | Sa ugtP lethal | Bead autofluor | Sa RN4220 lethal | BJeLR viability | Mtb hypoxia inh | Mtb hypoxia inh growth | PrP 5UTR inh
C/C(=N\NC(=O)CNc1cccc2ccccc12)c1ccccc1 | . | 4070 | . | 6 | . | . | -31
O=S(=O)(/N=C(/Nc1ccc(Cl)c(S(=O)(=O)Nc2ccccc2Cl)c1)c1ccc(F)cc1)c1ccccc1 | -6&-18 | 3873&2561 | 17&21 | -4 | 8&9 | 3&7 | -27&-15
CC(NC(=O)c1ccc(C(C)(C)C)cc1)C(c1cccs1)N1CCOCC1 (centres undefined) | 4 | 5799 | 2.0 | 0 | 1 | -2 | -16
CN(C(=O)COC(=O)c1cc(-c2ccc(Cl)s2)nc2ccccc12)C1CCS(=O)(=O)C1 (centres undefined) | 6 | 3363 | -1.9 | 12 | 12 | 6 | 5
COc1ccc(-n2c(SCC(=O)N3CCN(c4ccccc4)CC3)nc3c(c2=O)SCC3)cc1 | -6 | 4769 | -14 | 5 | -4 | 0 | 0
COc1ccc(S(=O)(=O)CCC(=O)NCCc2ccc(Cl)cc2)cc1 | 11 | 8179 | 3.0 | -17 | 1 | 3 | .
N=c1nc(-c2ccccc2)ccn1O | 0 | . | -0.8 | -4 | . | . | -24
CCC(CC)c1nnc(NC(=O)c2ccc3c(c2)OCO3)s1 | 17 | 3662 | 8.6 | 5 | 3 | 3 | -60
O=C(Nc1ncc(Cc2cccc(Cl)c2)s1)c1cccs1 | -14 | 3301 | -11 | -2 | 13 | 8 | -67
NCCc1c[nH]c2ccc(C(N)=O)cc12 | 5 | 6053 | 3.3 | . | -3 | -2 | -17
COc1ccc(C(=O)/C=C/NCc2ccc(F)cc2)cc1OC | 4 | . | 1.6 | 0 | 3 | 9 | -14
CCCc1cc(=O)[nH]c(SCC(=O)NCCC2=CCCCC2)n1 | -9 | 4778 | 3.1 | 0 | -3 | 5 | -16
O=C(NCc1ccc2c(c1)OCO2)C1CC(c2ccc(Cl)c(Cl)c2)=NO1 (centres undefined) | -10 | 3517 | -4.8 | 0 | . | . | -8
O=C(Nc1ccc(Br)cc1)C1CCCN(C2=NS(=O)(=O)c3ccccc32)C1 (centres undefined) | 3 | 3133 | -1.3 | . | -7 | -7 | -31
Fc1ccc(Cn2cccc2C2=NC(c3ccccc3)CO2)cc1 (centres undefined) | 6 | 1964 | 3.6 | 11 | 1 | 3 | -30
Cc1ccccc1Nc1c([N+](=O)[O-])ccc2c1=NC1(CCCCC1)N=2 | 1 | 9096 | 1.1 | -8 | 7 | 6 | -50
CC(C=NNC(=O)CSc1ccccn1)=Cc1ccc(C(C)C)cc1 | -19 | . | 1.1 | . | 0 | -1 | .
CNC(=O)ON=Cc1nn(C(=O)C(C)(C)C)cc1Br | 4 | . | 3.7 | . | 10 | 6 | .
CC1CCN(S(=O)(=O)c2cccc(C(=O)N(Cc3ccccc3)c3ccccn3)c2)CC1 | 4 | 4263 | 9.1 | -2 | 18 | 4 | -16
O=C(O)CC1c2ccccc2S(=O)(=O)N1Cc1ccccc1 (centres undefined) | 6 | 3117 | 4.3 | -7 | 5 | -8 | 4
CSCCC(NC(=O)COc1ccccc1)C(=O)N1CCC(C(N)=O)CC1 (centres undefined) | 3 | 3126 | 2.9 | . | 4 | 0 | -1
O=[N+]([O-])c1ccc(NN=CCCc2ccccc2)nc1 | 2 | 2968 | 1.3 | . | 4 | -2 | -20
Cc1cccc(CC2S/C(=N/N=C/c3ccco3)N(c3ccccc3)C2=O)c1 (centres undefined) | . | 2959 | . | -1 | . | . | -6
Cc1nn2c(N3CCN(C4CCCC4)CC3)cc(C(C)(C)C)nc2c1-c1ccccc1 | 7 | 23963* | -0.9 | -13 | 4 | 17 | -29
O=C(CCS(=O)(=O)c1cccc2nonc12)NCCc1ccccc1Cl | -1 | 8694 | 2.0 | -6 | 18 | 11 | -31

As entered above:
In Sa RN4220 lethal, `O=[N+]([O-])c1ccc(NN=CCCc2ccccc2)nc1` reads 1.3
In BJeLR viability, `O=C(NCc1ccc2c(c1)OCO2)C1CC(c2ccc(Cl)c(Cl)c2)=NO1` (centres undefined) reads 0

(continued)
SMILES | Sa ugtP lethal | Bead autofluor | Sa RN4220 lethal | BJeLR viability | Mtb hypoxia inh | Mtb hypoxia inh growth | PrP 5UTR inh
CN(C(=O)COc1ccc(Br)cc1Cl)C1CCCCC1 | 5 | 3820 | -2.1 | 5 | 13 | 3 | -26
CSc1nc(N2CCN(Cc3ccc4c(c3)OCO4)CC2)c2ccccc2n1 | 22 | 3305 | 2.7 | -11 | 1 | 15 | -14
COc1ccc(Br)cc1CN(C)C(=O)c1ccccc1SCC(=O)N1CCCC1 | -2 | ? | 1.7 | . | -20 | -8 | -6
Cc1cc2ncn(C(=O)N3CCCC3)c2cc1C | 4 | 3285 | -10 | 14 | -2 | 2 | -27
COc1cccc(Nc2ccc([N+](=O)[O-])c3nonc23)c1 | 5 | 4549 | 22 | 6 | 7 | 9 | -35
O=C(CSc1nnc(Cc2ccccc2)o1)NCc1ccco1 | -3 | 21761* | 9.0 | 1 | 9 | 8 | 2
CC(C)(C)Cc1nnc(NS(=O)(=O)c2ccccc2)s1 | 8 | 3136 | 6.1 | -5 | 9 | 14 | -9
COc1cc(C=CC(=O)N2CCN(CC(O)COc3ccccc3)CC2)cc(OC)c1OC (centres undefined) | 2 | . | 4.2 | . | 4 | 4 | .
Cc1ccc(-n2ccc(=O)c(C(=O)Nc3ccc(S(=O)(=O)Nc4onc(C)c4C)cc3)n2)cc1 | 7 | 4281 | 6.7 | 4 | . | . | 5
Cc1cccc(NC2=NCCCS2)c1 | 0 | . | 2.4 | 7 | -6 | 1 | .
COc1cc(OC)cc(C(=O)NCC(=O)NC(C)c2ccccc2)c1 (centres undefined) | 19 | 3206 | -0.1 | -7 | 6 | 2 | -1
CC(=O)Nc1ccc(-c2csc(NCc3ccccc3)n2)cc1 | -3 | 4815 | 3.6 | -1 | -6 | -1 | -58
CN(Cc1cn(-c2ccccc2)nc1-c1ccc(F)cc1)C(=O)CCC(=O)O | -1 | 2329 | 5.2 | -7 | 9 | 1 | -10
CCOc1ccccc1NC(=O)c1c(Br)cnn1C | 8 | 2000 | 6.8 | 5 | 13 | 1 | -13
O=C(COC(=O)CCc1nc2ccccc2c(=O)[nH]1)Nc1ccccc1OC(F)F | 13 | 6568 | 7.2 | . | 4 | -4 | -17
Cc1cc(C)n(C(=O)CN2C(=O)COc3ccccc32)n1 | 2 | 10979 | 2.8 | -12 | 3 | 1 | -19
O=C(Nc1ccc(-c2cn3ccsc3n2)cc1)C1CCCC1 | -5 | 3215 | 10.0 | 16 | . | . | -72
Cc1ccc2c(C(=O)CN3CCCCC3)c(C)[nH]c2c1 | -6 | 3588 | 3.2 | 9 | 6 | 3 | -16
CCc1ccc(NC(=O)Cn2nc(C(F)(F)F)c3c2CCC3)cc1 | 9 | 3505 | 0.1 | 3 | 8 | 7 | -13
O=C(Cn1ccc(C(F)(F)F)n1)NN=Cc1ccc(N2CCOCC2)cc1 | 4 | . | 3.3 | . | -2 | -3 | .
CCn1c(C)nc2cc(C(=O)N=Nc3c(O)[nH]c4c(C)cc(C)cc34)ccc21 | -3 | . | 4.9 | 20 | 0 | 9 | .
Cc1ccc(NC(=O)/C=C/C(=O)O)c([N+](=O)[O-])c1 | 0 | 10126 | -1.4 | 4 | -1 | 5 | -18
CCOC(=O)c1c(C)c(C(=O)NCc2ccco2)c(C)n1C | 6 | 2628 | 5.1 | 5 | 16 | 2 | -8
Brc1cnc(N2CCCC2)nc1N1CCOCC1 | 0 | 21599* | 13 | -6 | 4 | -1 | -5
CC1(C)OC(=O)C(=CNCCc2ccc(O)cc2)C(=O)O1 | 6 | 4309 | 4.2 | -5 | -1 | 7 | -36

Compound profiles, from the list above:
`O=C(Nc1ncc(Cc2cccc(Cl)c2)s1)c1cccs1` is entered as Sa ugtP lethal: -14; Bead autofluor: 3301; Sa RN4220 lethal: -11; BJeLR viability: -2; Mtb hypoxia inh: 13; Mtb hypoxia inh growth: 8; PrP 5UTR inh: -67
`Cc1cc2ncn(C(=O)N3CCCC3)c2cc1C` is entered as Sa ugtP lethal: 4; Bead autofluor: 3285; Sa RN4220 lethal: -10; BJeLR viability: 14; Mtb hypoxia inh: -2; Mtb hypoxia inh growth: 2; PrP 5UTR inh: -27
`O=C(Cn1ccc(C(F)(F)F)n1)NN=Cc1ccc(N2CCOCC2)cc1` is entered as Sa ugtP lethal: 4; Bead autofluor: .; Sa RN4220 lethal: 3.3; BJeLR viability: .; Mtb hypoxia inh: -2; Mtb hypoxia inh growth: -3; PrP 5UTR inh: .

Not a retest: an excerpt of the list.
SMILES | Sa ugtP lethal | Bead autofluor | Sa RN4220 lethal | BJeLR viability | Mtb hypoxia inh | Mtb hypoxia inh growth | PrP 5UTR inh
CN(C(=O)COc1ccc(Br)cc1Cl)C1CCCCC1 | 5 | 3820 | -2.1 | 5 | 13 | 3 | -26
CSc1nc(N2CCN(Cc3ccc4c(c3)OCO4)CC2)c2ccccc2n1 | 22 | 3305 | 2.7 | -11 | 1 | 15 | -14
COc1ccc(Br)cc1CN(C)C(=O)c1ccccc1SCC(=O)N1CCCC1 | -2 | ? | 1.7 | . | -20 | -8 | -6

Next entries.
SMILES | Sa ugtP lethal | Bead autofluor | Sa RN4220 lethal | BJeLR viability | Mtb hypoxia inh | Mtb hypoxia inh growth | PrP 5UTR inh
CCCCN(CC)S(=O)(=O)c1ccc(C(=O)N=c2sc3cc(NC(C)=O)ccc3n2C)cc1 | . | 7474 | . | 9 | . | . | -12
COc1cc(/C=C/c2ccc3cccc(OC)c3n2)c(O)c([N+](=O)[O-])c1 | 8 | 4352 | 4.4 | 6 | 12 | 5 | -24
O=C1N(c2ccc(Cl)c(Cl)c2)CN(Cc2ccccc2)CN1n1cnnc1 | -1 | 17448* | 2.6 | 5 | 15 | -15 | 4
Cc1ccc(S(=O)(=O)N(C)c2ccccc2C(=O)Nc2ccc(F)cc2F)cc1 | 6 | 4661 | -0.2 | 13 | -3 | -2 | -18
Cc1ccc(C2CC(=O)Nc3sc(C(N)=O)c(N)c32)cc1 (centres undefined) | -4 | 21762* | 1.7 | 11 | 3 | 11 | 4
O=C1CCN(Cc2ccc(O)cc2)CCN1[C@H](CO)Cc1ccccc1 | . | 2748 | . | -2 | . | . | 2
Cc1ccc(O)c(Nc2c3ccccc3nc3ccccc23)c1 | -12 | 2972 | 4.1 | 2 | 18 | 5 | -5
C=CCn1c(C)c(/C=C/c2cc[n+](C)cc2)c2ccccc21 | . | 12195 | . | 21 | . | . | -12
COc1cccc(N2CCN(C3CC(=O)N(c4ccc(C)c(Cl)c4)C3=O)CC2)c1 (centres undefined) | -5 | 10224 | 4.6 | -1 | 12 | 6 | -9
CC(NC(=O)CC(c1ccccc1)c1cc(Cl)ccc1O)c1ccccc1 (centres undefined) | . | 2355 | . | -8 | . | . | -2
Cc1ccc(N(C(=O)Cn2nnc3ccccc32)C(C(=O)NCc2ccccc2)c2ccccn2)cc1 (centres undefined) | -2 | 2467 | -0.4 | 8 | 8 | 1 | -8
CN1c2ccccc2C(=O)/C(=C\Nc2ccc(F)cc2F)S1(=O)=O | 3 | 4054 | 4.5 | 1 | 6 | 4 | -25
CCc1ccc2[nH]c3nc(NN=Cc4ccc(O)cc4O)nnc3c2c1 | -11 | . | 5.9 | . | 11 | 2 | .
S=c1[nH]nc(C2CCCCC2)n1N=C/C=C/c1ccccc1 | -1 | . | 3.5 | . | -1 | -6 | .
CN(C(=O)CCn1c(=S)oc2ccccc21)c1ccc(F)cc1 | 3 | 2059 | 2.9 | -5 | -6 | 5 | -20
O=C(Cc1cccs1)N/N=C/C=C/c1ccccc1 | . | 10867 | . | 1 | . | . | -4
O=C(OC(C(=O)NCc1cccs1)c1ccccc1Cl)c1ccco1 (centres undefined) | 18 | 9797 | 5.7 | -13 | 8 | 4 | -27
COc1cccc(C2C(C(=O)Nc3ccccc3)=C(C)N=c3sc(=Cc4ccc(OCC(=O)O)cc4)c(=O)n32)c1 (centres undefined) | 11 | . | 9.4 | . | -1 | -2 | .
Cc1ccc(COC(=O)CCCN=C2NS(=O)(=O)c3ccccc32)cc1 | 3 | ? | -0.1 | 6 | 7 | 1 | -5
Cc1cc(NC(=O)CCN2CCC(C(N)=O)CC2)ccc1Br | 0 | 3152 | -1.4 | -1 | 4 | -3 | -12

Compound activity from PubChem.
